gsp antagonist: qHTS for Antagonists of gsp, the Etiologic Mutation Responsible for Fibrous Dysplasia/McCune-Albright Syndrome: qHTS; gsp-mutant cells, cAMP HTRF, 30 min; control for the full effect not named in the record; Potency, µM (highest dose often 76.9 µM), inactives show at the highest dose activity change, negative = inhibition, usual class: inhibitors; 340,000 compounds, 0.4% hits; AID 624288, 2012; active = falling curve of any shape with a large fitted effect; inconclusive = falling curve, mostly with a smaller effect; inactive = flat or rising curve; cell line not stated here;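 note: intracellular cAMP measured with PDE inhibitor Ro 20-1724 present during compound exposure; potency is the fitted concentration of half-maximal effect; % is set by controls: 0 for no effect and ±100 for the full control effect; nearly all actives have a fitted effect of over 65% in size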
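Measurement of cellular cAMP by homogeneous time-resolved fluorescence following a 30 min compound exposure at 37C. The PDE inhibitor […] was present throughout; the assay buffer was DPBS with 0.05% BSA and 0.005% Tween 20.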
CtBP-E1A inh: qHTS Assay for Inhibitors of the CtBP/E1A Interaction; activity change, % (concentration not given with the values); AlphaScreen GST-E1A/His-CtBP binding, 1536-well; active compounds read low; control for the full effect not named in the record; 340,000 compounds, 0.49% hits; CtBP / adenovirus E1A interaction (AlphaScreen); AID 651724, 2012; in the data active means activity change below about -65%; inconclusive means about -30% to -65%; inactive means above about -30%; note: % is set by controls: 0 for no effect and ±100 for the full control effect
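In 5 uL wells, 23 nL compound meets equimolar GST-E1A and His-CtBP (5X stock 125 nM each) for 2 h, 37 °C. Beads (5X, 50 ug/mL) then 1 h, 37 °C, dark.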
ClpP mod: qHTS Assay for Activators of ClpP; Potency, µM (series often up to 57.5 µM), for inactives: at the highest dose activity change, negative = active; purified B. subtilis ClpP, FRET peptide cleavage, 20 min; 340,000 compounds, 1.9% hits; ATP-dependent Clp protease proteolytic subunit (Bacillus subtilis (strain 168)), P80244; active = well fitted falling curve with a large enough effect; inconclusive = small, poorly fitted or top-dose-only effect; inactive = no such curve, though single readings can be large or run the other way; note: potency is the fitted concentration of half-maximal effect; the source files actives as falling curves though it sought activators and does not explain the sign; nearly all actives have a fitted effect of over 65% in size; many hits overshoot -100%
Target sequence (P80244 whole entry, looked up): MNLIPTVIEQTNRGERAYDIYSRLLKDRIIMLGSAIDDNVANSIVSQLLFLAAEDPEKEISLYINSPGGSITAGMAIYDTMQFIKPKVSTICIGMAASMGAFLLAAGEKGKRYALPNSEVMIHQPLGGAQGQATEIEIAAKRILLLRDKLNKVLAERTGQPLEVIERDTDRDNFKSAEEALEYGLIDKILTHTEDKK
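FRET quenching reversal measured ClpP activation: 10 microg/mL B. subtilis ClpP at pH 8 with the FRET-FV decapeptide, read at 430 nm after 320 nm excitation. The 20-min minus 0-min signal was scaled between DMSO/no-enzyme wells and ADEP (5.8 microM final).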
Menin MLL FP FL: qHTS Assay for Inhibitors Targeting the Menin-MLL Interaction in MLL Related Leukemias: Competition With Fluorescein Labeled MLL-derived Peptide. Fluorescence polarization, fluorescein-MLL peptide displacement from menin. FP activity change, % at 61.4 µM. 290,000 tested, under 10 active. AID 1766, 2009; inconclusive = falling polarisation curve, or a change in total fluorescence; inactive = total fluorescence flat and polarisation flat or rising; no compound was filed as active; the % refers to the polarisation; negative = inhibition;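 note: % of control where 0% means no effect; inhibitors lower the polarisation; unlabelled MLL peptide was the positive control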
gsp agonist: qHTS for Agonist of gsp, the Etiologic Mutation Responsible for Fibrous Dysplasia/McCune-Albright Syndrome: qHTS. gsp mutant cells, cAMP HTRF, 30 min; control for the full effect not named in the record. Potency, µM (top dose mostly 76.9 µM), without a hit: top-dose activation (cAMP increase), hits mostly activators. AID 624287, 2012. 340,000 compounds, 0.13% hits; active = well fitted activation curve with a large enough effect; inconclusive = small, poorly fitted or top-dose-only effect, or another doubt; inactive = no such curve, though single readings can be large or run the other way; cell line not stated here;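 note: phosphodiesterase inhibitor Ro 20-1724 added with compounds to block cAMP breakdown; potency is the fitted concentration of half-maximal effect; nearly all actives have a fitted effect of over 60% in size; about a fifth of the inactives were tested at one dose only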
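Cells in DMEM/10% FBS with G418 were pretreated with compounds in DMSO plus […] (300 uM stock) for 30 min at 37C. cAMP was measured by HTRF (cAMP-d2 plus anti-cAMP antibody-K) after 30 min at room temperature.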
Sfp inh: qHTS Assay for Inhibitors of Bacillus subtilis Sfp phosphopantetheinyl transferase (PPTase). 4'-phosphopantetheinyl transferase ffp (Bacillus subtilis), Q9F4F7. Biochemical Sfp PPTase activity, qHTS. Potency, µM, for the others: max response, negative = inhibition, most hits filed as inhibitors. 310,000 compounds, 3.5% hits. AID 1490, 2009; active = well fitted inhibition curve with a large enough effect; inconclusive = small, poorly fitted or top-dose-only effect, or another doubt; inactive = no such curve, though single readings can be large or run the other way;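 note: the enzyme is Sfp with the accession as filed and its product quenches rhodamine fluorescence; potency is the fitted concentration of half-maximal effect; 0% = enzyme reaction without inhibitor and -100% = no enzyme wells; top concentration of the series not given in the record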
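Reaction rates are the 30-min fluorescence difference (ex 525, em 598 nm) in wells containing 15 nM Sfp, 5 uM rhodamine-CoA and 12.5 uM BHQ-2-YbbR at pH 7.6 with 10 mM MgCl2.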
TRPV1 potentiator: HTS Assay for Compounds that Act as Potentiators of the Vanilloid Receptor 1. TRPV1-expressing cells, Fluo-8 calcium influx, capsaicin EC20 potentiation; host cell line not named in the record; control for the full effect not named in the record. potentiation, % at 8.33 µM. 320,000 compounds, 0.02% hits. AID 540277, 2011; active means potentiation above 80%; inconclusive means 30% to 80%; inactive means below 30%; note: 0% is about no effect
Target sequence (Q8NER1 whole entry, looked up): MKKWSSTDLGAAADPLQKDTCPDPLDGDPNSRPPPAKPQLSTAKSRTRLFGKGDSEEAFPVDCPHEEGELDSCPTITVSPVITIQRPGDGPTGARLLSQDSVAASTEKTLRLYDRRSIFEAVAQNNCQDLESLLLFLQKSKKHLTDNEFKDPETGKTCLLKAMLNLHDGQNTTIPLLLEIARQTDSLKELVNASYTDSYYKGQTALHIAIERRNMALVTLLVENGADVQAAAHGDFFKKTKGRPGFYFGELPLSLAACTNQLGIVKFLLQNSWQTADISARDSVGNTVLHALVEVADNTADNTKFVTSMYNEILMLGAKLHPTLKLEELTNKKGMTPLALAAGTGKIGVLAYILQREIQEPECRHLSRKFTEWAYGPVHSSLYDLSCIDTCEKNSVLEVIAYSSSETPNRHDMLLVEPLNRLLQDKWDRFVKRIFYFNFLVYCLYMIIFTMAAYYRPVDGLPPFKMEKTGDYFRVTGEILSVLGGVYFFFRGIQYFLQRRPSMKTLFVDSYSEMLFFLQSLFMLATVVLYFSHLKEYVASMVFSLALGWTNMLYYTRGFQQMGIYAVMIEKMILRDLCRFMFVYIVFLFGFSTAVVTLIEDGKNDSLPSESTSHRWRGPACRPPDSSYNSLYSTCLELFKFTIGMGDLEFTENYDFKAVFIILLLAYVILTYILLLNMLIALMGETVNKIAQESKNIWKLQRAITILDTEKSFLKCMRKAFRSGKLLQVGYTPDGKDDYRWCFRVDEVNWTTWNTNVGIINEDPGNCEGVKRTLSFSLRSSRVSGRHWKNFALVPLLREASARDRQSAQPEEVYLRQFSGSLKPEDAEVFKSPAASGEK
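TRPV1-expressing cells were cultured overnight at 35.5C and loaded with Fluo-8 calcium dye for 40 to 90 min at room temperature. After a 10 s baseline, compound was added and calcium influx was read kinetically for 3 min (ex 480/em 520 nm).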
Numbers without * were called inactive; ? = inconclusive; . = no result given; [ ] = another dose, or the depositor's remark.

SMILES	gsp antagonist	CtBP-E1A inh	ClpP mod	Menin MLL FP FL	gsp agonist	Sfp inh	TRPV1 potentiator
Cc1cc(C)nc(N2CCC(C(=O)Nc3nnc(C)s3)CC2)n1	2.7%	1.8	-6.5%	-0.7	-20.7%	7.6%	0.4
COc1ccc(CCNC(=O)c2ccc(Cl)c(S(=O)(=O)N(C)c3ccccc3)c2)cc1	?	11.0	-0.6%	-0.5	-4.8%[15.4 µM]	12.1%	?
Cc1cc(NC(=O)CSc2ccc3nnc(CCNS(=O)(=O)c4ccccc4)n3n2)no1	9.9%	0.5	.	-3.4	43.5%	14.8%	5.8
COc1ccc(S(=O)(=O)N2CCN(CCO)CC2)cc1-c1nnc2c3ccccc3c(C)nn12	10.0%	-11.0	-10.6%	0.7	?	-2.9%	5.5
Cc1ccc(N(C(=O)C(F)(F)F)C(C(=O)NC2CCCCC2)c2cccs2)cc1C (configuration not stated)	0.5%	2.1	-0.6%	1.2	-49.1%[inhibitor]	11.9%	.
COc1cccc(CC2(CO)CCN(Cc3ccc4cccc(F)c4n3)CC2)c1	1.9%	1.7	.	1.7	3.1%[15.4 µM]	4.4%	2.8
COc1ccc(N2CC(C(=O)N[C@@H](C)C(=O)N3CCCCC3)CC2=O)cc1 (some centres not stated)	16.6%	5.5	1.2%	.	?	12.8%	6.5
O=C(CCc1nc2ccccc2c(=O)[nH]1)Nc1cc(C(F)(F)F)ccc1N1CCCC1	-9.4%	0.0	5.0%	.	-20.1%	.	3.8
N#CCCN1CCN(S(=O)(=O)c2ccc(S(=O)(=O)N3CCCCCC3)cc2)CC1	6.6%	5.4	1.5%	4.0	-0.4%	19.2%	?
COC(=O)c1ccc(Oc2nc(SC)nc(N(C)C)n2)cc1	-36.2%	0.0	-1.4%	7.2	1.5%[15.4 µM]	?	27.3
Cc1ccc(NC(=O)/C(=C/c2ccncc2)NC(=O)c2ccccc2)cc1	9.7%	2.6	-1.8%	-0.8	8.5%[15.4 µM]	3.2%	3.5
CCc1nc(C)cn1S(=O)(=O)c1cc(Br)c(C)cc1OC	19.3%	9.1	-4.6%	-6.4	-10.0%	-25.2%	3.8
O=C(CN1CCN(Cc2ccccc2)CC1)Nc1cccc(Cl)c1	-4.6%	0.6	-3.7%	-1.8	7.1%[15.4 µM]	10.9%	-6.9
Cc1ccc(N2CC(C(=O)OCc3ccccc3)CC2=O)cc1 (configuration not stated)	2.7%	8.5	0.5%	1.1	5.1%	-14.6%	-29.0
CCN(C[C@H]1N[C@@](Cc2ccccc2)(C(=O)OC)[C@H]2C(=O)N(Cc3ccccc3)C(=O)[C@@H]12)S(=O)(=O)c1ccc(OC(F)(F)F)cc1	-15.6%	-1.7	-3.7%	.	.	.	.
CCn1cc(-c2nnnn2-c2ccc(Cl)cc2)c(=O)c2ccccc21	-13.5%	-4.5	-8.2%	-0.3	-60.6%[inhibitor]	8.7%	-9.2
CCC(CC)NC(=O)C1CCN(c2ccc(S(=O)(=O)N3CCOCC3)cc2[N+](=O)[O-])CC1	-1.1%	2.8	-0.4%	.	19.7%	.	9.5
COc1ccc(NC(=O)CC2C(=O)OCC3CCCCN32)cc1Cl (configuration not stated)	12.4%	-1.5	-0.6%	5.2	4.0%	13.6%	7.1
COc1ccc(C)c2sc(=NC(=O)c3ccc(C(C)=O)cc3)n(C)c12	-1.5%	1.2	-4.7%	-0.9	?	3.5%	.
CC(C)C(=O)NNC(=O)c1c(O)c2ccccc2[nH]c1=O	8.5%	1.1	-1.7%	-1.3	?	19.5%	24.1
CCOC(=O)COc1nc(C)cc(C(F)(F)F)c1C#N	0.8%	1.7	-1.4%	-1.4	-0.7%[15.4 µM]	3.7%	-6.1
COc1ccc(C(=O)N/N=C/c2cccnc2)cc1	-4.7%	2.0	0.2%	3.1	28.7%	2.1%	-30.3
CCC(=O)Nc1ccc(NC(=O)CSc2nc3c(c(=O)n(C)c(=O)n3C)n2CC)cc1	21.8%	3.2	.	4.7	47.4%[15.4 µM]	8.7%	14.1
COc1cccc(N2CCN(CC(=O)NCc3ccccc3)CC2)c1	-22.3%	1.9	0.1%	-4.3	3.2%[15.4 µM]	13.0%	-17.9
CCN(C[C@H]1N[C@@](C)(C(=O)OC)[C@H]2C(=O)N(Cc3ccccc3)C(=O)[C@@H]12)C(=O)Nc1ccccc1	-1.7%	5.9	0.3%	.	.	.	.
OCC1OC(n2cnc3c(NC4CCCCC4)ncnc32)C(O)C1O (configuration not stated)	10.5%	6.9	1.0%	-2.9	.	10.0%	16.3
COCCN(C(=O)Nc1ccccc1)C(C)c1cccnc1 (configuration not stated)	2.1%	4.2	1.9%	2.1	-33.6%[inhibitor]	22.5%	.
O=C(OCC(=O)N1CCCCC1)c1ccc(OC(F)(F)F)cc1	-5.6%	3.2	0.8%	.	17.5%[15.4 µM]	.	.
O=C(c1cccc(C(F)(F)F)c1)N1CCN(c2cc(=O)[nH]nc2-c2ccccc2)CC1	-12.8%	-2.4	-0.4%	-1.3	0.9%	5.4%	5.8
O=c1cc(C(F)(F)F)[nH]c2ccc(C(F)(F)F)cc12	?	5.1	-0.7%	3.0	-0.2%[15.4 µM]	15.0%	-9.6
CCN(CC)CCN1C(=O)C(=O)/C(=C(/O)c2ccc(F)cc2)C1c1ccncc1 (configuration not stated)	14.6%	-18.9	1.7%	-1.1	-12.5%	8.2%	1.0
CC(NC(=O)C1CCCN(S(=O)(=O)c2cccs2)C1)c1ccccc1 (configuration not stated)	-1.5%	-3.8	-0.2%	0.9	-10.4%	15.8%	-11.7
CCOC(=O)COc1cccc2c(=O)n(CC(=O)N3CCC(C)CC3)ccc12	3.5%	0.0	-15.5%	1.7	-7.5%	11.1%	-2.5
O=c1oc2ccccc2c(N2CCCCC2)c1CN1CCCC1	1.9%	-3.4	-4.1%	-1.7	-26.4%	13.8%	-9.2
O=C1CSC(=S)N1/N=C/c1ccc(O)c([N+](=O)[O-])c1	?	?	.	?	-1.5%[15.4 µM]	39.8µM*	15.8
O=C1CNC(=O)N1c1ccc(Cl)cc1	2.8%	1.7	.	4.0	2.6%	15.1%	1.4
Cc1cccc(N(Cc2cc3ccccc3[nH]c2=O)C(=O)c2ccco2)c1C	-16.0%	10.2	-7.2%	-0.1	-0.5%	79.4µM*	4.0
Cc1c(NC(=O)OCCNC(=O)Nc2ccccc2)sc(=S)n1C	-5.9%	3.2	0.2%	4.2	-21.8%	-24.0%	6.9
CCc1ccccc1NS(=O)(=O)c1ccc2c(c1)C(C)(C)C(=O)N2C	-7.9%	1.9	-1.0%	-4.6	10.3%	-2.1%	3.4
CC(C)(C)CC(=O)NCCc1csc(-c2ccccc2)n1	-3.3%	8.8	-4.4%	1.7	?	0.1%	-10.2
COc1ccc(/C=C(\NC(=O)c2cccs2)C(=O)NN)cc1OC	-4.4%	-0.2	0.2%	-14.7	3.7%[15.4 µM]	6.8%	5.4
Cc1ccc2c(c1)SC1=NC(c3ccccc3)(C(F)(F)F)NC(=O)N12 (configuration not stated)	.	.	.	-1.2	.	-0.3%	-6.8
CSc1nnc(SCC2=NNC(=O)SC2)s1	12.3%	6.1	-1.1%	.	10.3%	5.1%	-0.4
O=C(COC(=O)c1ccccc1S(=O)(=O)N1CCCCC1)NCC(F)(F)F	-0.3%	-2.3	-1.7%	6.4	4.9%	-12.6%	-17.6
O=C(CSc1ncnc2c1oc1ccccc12)Nc1ccc2c(c1)OCCO2	7.6%	-15.6	1.0%	.	5.8%	.	.
O=C(NCc1cccnc1)c1ccccc1Br	11.3%	-0.1	-1.0%	0.7	4.1%	-3.8%	-1.8
CCOC(=O)N1CCC(NC(=O)CSCc2nc(-c3ccc(OCC)cc3)oc2C)CC1	-19.9%	-4.1	4.3%	.	9.0%	1.4%	24.2
CC(=O)NC(Cc1ccc(F)c(F)c1)C(=O)NC1CCN(C(=O)c2ccc(C)cc2)CC1 (configuration not stated)	3.6%	.	2.9%	5.4	4.1%	-2.2%	-5.7
O=C(NCCNCCO)C1(C(F)(F)F)C/C(=C\Cc2ccccc2)CCCO1 (configuration not stated)	10.8%	5.4	-1.5%	-2.4	.	-5.8%	.
Cc1ccc(NC(=O)c2cc(C)no2)cc1	6.6%	-15.7	-1.0%	3.7	2.7%	15.8%	-26.5
CC1(C)CC(N=C2C([N+](=O)[O-])=CC=C3C2=NC2(CCCCC2)N3O)CC(C)(C)N1	-6.3%	-3.7	-1.1%	3.8	-5.3%[15.4 µM]	-18.6%	-10.5
CCOc1ccc(NC(=S)NCc2ccc3[nH]c(C)cc3c2)cc1	-9.5%	.	-0.1%	-4.3	2.7%	-13.0%	-12.4
CCOc1ccc(C(CC(=O)O)NC(=O)C23CC4CC(CC(C4)C2)C3)cc1OC (configuration not stated)	11.1%	2.0	.	-2.0	-14.8%[15.4 µM]	19.6%	-12.9
CC(Sc1nccn1C)C(=O)Nc1ccc(C(N)=O)cc1 (configuration not stated)	8.9%	-1.5	1.4%	.	2.2%[15.4 µM]	.	-3.7
CCc1ccc(NC(=O)[C@H](C)NC(=O)C2CCN(C(=O)[C@@H](N)CC(C)C)CC2)cc1	9.2%	.	-0.2%	-2.1	7.9%	0.8%	3.5

3 compounds from above, arranged by the value under Sfp inh, largest number first:
| Structure | gsp antagonist | CtBP-E1A inh | Menin MLL FP FL | gsp agonist | Sfp inh |
| --- | --- | --- | --- | --- | --- |
| N#CCCN1CCN(S(=O)(=O)c2ccc(S(=O)(=O)N3CCCCCC3)cc2)CC1 | 6.6% | 5.4 | 4.0 | -0.4% | 19.2% |
| COc1ccc(C)c2sc(=NC(=O)c3ccc(C(C)=O)cc3)n(C)c12 | -1.5% | 1.2 | -0.9 | ? | 3.5% |
| O=C(COC(=O)c1ccccc1S(=O)(=O)N1CCCCC1)NCC(F)(F)F | -0.3% | -2.3 | 6.4 | 4.9% | -12.6% |
